# Screening results: PubChem BioAssay, National Center for Advancing Translational Sciences (NCATS)
# TRPML1 agonist – qHTS for Agonists of the Human Mucolipin Transient Receptor Potential 1 (TRPML1) | activation, % (concentration not given with the values) | TRPML1-expressing cells, Ca2+ dye fluorescence, FDSS; host cell line not named in the record; reference of the full effect not given here | AID 624414, 2012 | hit rate 0.12% among 410,000; in the data active = activation above about 50%; inconclusive = about 30% to 50%; inactive = below about 30%; note: 0% is about no effect; the text of the record puts the active cut at 80%
# Target sequence (Q9GZU1 whole entry, looked up): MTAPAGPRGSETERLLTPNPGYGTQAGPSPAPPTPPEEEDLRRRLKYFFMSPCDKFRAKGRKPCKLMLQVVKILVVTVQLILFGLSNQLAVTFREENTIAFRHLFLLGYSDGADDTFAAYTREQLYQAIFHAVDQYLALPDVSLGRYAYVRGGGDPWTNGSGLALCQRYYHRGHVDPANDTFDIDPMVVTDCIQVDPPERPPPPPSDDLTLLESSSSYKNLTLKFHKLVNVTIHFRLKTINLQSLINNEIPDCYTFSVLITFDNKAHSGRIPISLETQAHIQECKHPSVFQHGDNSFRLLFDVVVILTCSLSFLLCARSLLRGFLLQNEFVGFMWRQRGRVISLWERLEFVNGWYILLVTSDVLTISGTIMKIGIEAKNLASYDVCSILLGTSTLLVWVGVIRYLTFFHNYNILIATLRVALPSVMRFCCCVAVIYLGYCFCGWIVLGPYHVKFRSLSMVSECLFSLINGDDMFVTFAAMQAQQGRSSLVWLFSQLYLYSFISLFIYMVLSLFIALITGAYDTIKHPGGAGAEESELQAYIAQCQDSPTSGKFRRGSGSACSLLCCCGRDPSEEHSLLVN
#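 TRPML1-DL cells, Tet-induced overnight (~16 h, 37 degrees C), loaded 45-90 min at room temperature with Ca8 no-wash calcium dye plus quencher. FDSS fluorescence: 10 s baseline, compound pin-transfer, 110 s agonist read, then EC80 54-4 (4uM final) and 110 s antagonist read.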
# gsp agonist – qHTS for Agonist of gsp, the Etiologic Mutation Responsible for Fibrous Dysplasia/McCune-Albright Syndrome: qHTS; hit rate 0.13% among 340,000; gsp mutant cells, cAMP HTRF, 30 min; control for the full effect not named in the record; AID 624287, 2012; Potency, µM (doses to about 76.9 µM), without a hit: at the top dose activation (cAMP increase), usual class: activators; active = well fitted activation curve with a large enough effect; inconclusive = small, poorly fitted or top-dose-only effect, or another doubt; inactive = no such curve, though single readings can be large or run the other way; cell line not stated here;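 note: phosphodiesterase inhibitor Ro 20-1724 added with compounds to block cAMP breakdown; potency is the fitted concentration of half-maximal effect; nearly all actives have a fitted effect of over 60% in size; about a fifth of the inactives were tested at one dose only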
#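 Cells in DMEM/10% FBS with G418 were pretreated with compounds in DMSO plus […] (300 uM stock) for 30 min at 37C. cAMP was measured by HTRF (cAMP-d2 plus anti-cAMP antibody-K) after 30 min at room temperature.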
# Menin-MLL FL inh – qHTS Assay for Inhibitors Targeting the Menin-MLL Interaction in MLL Related Leukemias: Competition With Fluorescein Labeled MLL-derived Peptide; Fluorescence polarization, fluorescein-MLL peptide displacement from menin; FP activity change, % at 61.4 µM; 290,000 tested, under 10 active; inconclusive = falling polarisation curve, or a change in total fluorescence; inactive = total fluorescence flat and polarisation flat or rising; no compound was filed as active; the % refers to the polarisation; negative = inhibition;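 note: % of control where 0% means no effect; inhibitors lower the polarisation; unlabelled MLL peptide was the positive control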
# ClpP mod – qHTS Assay for Activators of ClpP; ATP-dependent Clp protease proteolytic subunit (Bacillus subtilis (strain 168)), P80244; purified B. subtilis ClpP, FRET peptide cleavage, 20 min; Potency, µM (doses to about 57.5 µM), for inactives: at the top dose activity change, negative = active; hit rate 1.9% among 340,000; AID 651965, 2013; active = well fitted falling curve with a large enough effect; inconclusive = small, poorly fitted or top-dose-only effect; inactive = no such curve, though single readings can be large or run the other way; note: potency is the fitted concentration of half-maximal effect; the source files actives as falling curves though it sought activators and does not explain the sign; nearly all actives have a fitted effect of over 65% in size; many hits overshoot -100%
# Target sequence (P80244 whole entry, looked up): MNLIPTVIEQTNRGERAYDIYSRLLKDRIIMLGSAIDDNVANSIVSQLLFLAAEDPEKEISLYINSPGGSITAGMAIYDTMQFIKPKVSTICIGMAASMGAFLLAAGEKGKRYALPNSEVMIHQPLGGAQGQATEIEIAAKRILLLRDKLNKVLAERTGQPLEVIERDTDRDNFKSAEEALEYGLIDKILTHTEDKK
#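 Buffer: 100 mM Tris/HCl pH8, 100 mM KCl, 0.05% low protease BSA, 2.5% glycerol, 0.01% Tween-20. ClpP 10 microg/mL final; 20 min RT; delta FRET normalized to ADEP and DMSO controls.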
# gsp antagonist – qHTS for Antagonists of gsp, the Etiologic Mutation Responsible for Fibrous Dysplasia/McCune-Albright Syndrome: qHTS; gsp-mutant cells, cAMP HTRF, 30 min; control for the full effect not named in the record; Potency, µM (series often up to 76.9 µM), inactives show at the top dose activity change, negative = inhibition, hits mostly inhibitors; hit rate 0.4% among 340,000; active = falling curve of any shape with a large fitted effect; inconclusive = falling curve, mostly with a smaller effect; inactive = flat or rising curve; cell line not stated here;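 note: intracellular cAMP measured with PDE inhibitor Ro 20-1724 present during compound exposure; potency is the fitted concentration of half-maximal effect; % is set by controls: 0 for no effect and ±100 for the full control effect; nearly all actives have a fitted effect of over 65% in size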
#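 Cells in G418 medium, seeded 16-24 h, 37C; buffer exchange to DPBS + 1 mM CaCl2, 0.5 mM MgCl2, 0.05% BSA; cpds in DMSO + […] (300 uM stock), 30 min 37C; HTRF cAMP detection.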
# TRPML1 blocker – qHTS for Inhibitors of the Human Mucolipin Transient Receptor Potential 1 (TRPML1). activity change, negative = inhibition, % (no concentration beside the values). TRPML1-inducible cells, Ca2+ dye fluorescence, FDSS; active compounds read low; inhibition of EC80 agonist-evoked calcium signal. hit rate 0.02% among 390,000; in the data active means activity change below about -50%; inconclusive means about -30% to -50%; inactive means above about -30%;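 note: stimulus is agonist 54-4 at its EC80 concentration; % is set by controls: 0 for no effect and ±100 for the full control effect; compound concentration not given in the record; the text of the record puts the active cut at -80%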
#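 Tet-induced TRPML1-DL cells loaded with Ca8 no-wash calcium dye were read kinetically on FDSS. Compound addition was followed by EC80 agonist 54-4 (4 uM final); inhibition was read over 110 s.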
# Starred values were filed as active, the others as inactive; ? = inconclusive; . = no result given; [ ] = another dose, or the depositor's remark.
compound	ClpP mod	gsp agonist	Menin-MLL FL inh	TRPML1 agonist	gsp antagonist	TRPML1 blocker
Cn1c(=O)c2c(SCC(=O)NCC3CCCO3)nc(CC(C)(C)C)nc2n(C)c1=O (stereo not drawn)	0.3%	14µM*	0.1	-0.2	11%	-14
Cc1ccc(C(=O)NNc2ncnc3ccccc23)cc1	.	-19%[15.4 µM]	-2.7	-0.8	1%	-9
C=C(C)Cn1c(-c2cccc([N+](=O)[O-])c2)n[nH]c1=S	.	-1%[15.4 µM]	2.6	-0.7	-10%	3
O=C(N/N=C/c1ccccn1)C(=O)N1CCCCCC1	-1.1%	0%[15.4 µM]	0.9	-0.2	-8%	-5
COc1cc(OC)cc(-c2c(-c3ccc(F)cc3)c3cc(-c4ccc5[nH]ccc5c4)ccc3n2C)c1	3.3%	15%	.	-0.1	5%	-4
CCN(CC)c1ccc(/C=N/NC(=O)c2ccoc2C)cc1	.	?	-1.2	0.6	-8%	1
O=C(c1ccc(Cl)cc1)[C@@H]1[C@@H]2C(=O)N(c3ccc(Cl)cc3)C(=O)[C@@H]2C2c3ccccc3C=NN21 (stereo partly drawn)	-1.3%	?	19	7.5	9%	25
CC(C)(C)OC(=O)NCCCCCNC(=O)c1nc[nH]c1C(=O)N1CCN(C(=O)OC(C)(C)C)CC1	1.7%	-46%[inhibitor]	.	-0.8	-14%	-1
CCN1C(=O)C2(/C(=C(\O)c3ccc4c(c3)OCCO4)C(=O)C(=O)N2CCCOC)c2ccccc21 (stereo not drawn)	-1.7%	10%	2.3	-0.6	-7%	5
COc1cccc(-c2nn(-c3ccccc3)cc2C(=O)n2nnc3ccccc32)c1	?	-20%	1.4	-0.5	-12%	17
c1ccc(-c2nc(N3CCNCC3)nc3ccccc23)cc1	-24%	12%	-2.1	-0.5	12%	-13
CCOC(=O)C(NC(=O)c1ccccc1)(Nc1cccc(C)n1)C(F)(F)F (stereo not drawn)	.	0%[15.4 µM]	-0.3	-0.6	4%	9
CCOc1ccc(Oc2ccc(Cl)cc2NC(=O)CCNC(C)=O)cc1	.	12%[15.4 µM]	1.9	1.1	-27%	-22
CN(c1ccccc1)S(=O)(=O)c1ccc(NC(=O)COc2ccccc2)cc1	-5.1%	?	3.4	-0.3	-11%	-11
O=C(/C=C/c1ccc2c(c1)OCO2)NC1CCCC1	4.4%	-10%	-1.2	-0.4	1%	-12

# Brought forward from above: 3 compounds; new compounds follow.
compound	ClpP mod	gsp agonist	Menin-MLL FL inh	TRPML1 agonist	gsp antagonist	TRPML1 blocker
CCOc1ccc(Oc2ccc(Cl)cc2NC(=O)CCNC(C)=O)cc1	.	12%[15.4 µM]	1.9	1.1	-27%	-22
CN(c1ccccc1)S(=O)(=O)c1ccc(NC(=O)COc2ccccc2)cc1	-5.1%	?	3.4	-0.3	-11%	-11
O=C(/C=C/c1ccc2c(c1)OCO2)NC1CCCC1	4.4%	-10%	-1.2	-0.4	1%	-12
CC(=O)OCC(=O)C1(O)CCC2C3CC(C)C4=CC(=O)CCC4(C)C3C(O)CC21C (stereo not drawn)	.	-60%	.	-0.2	-5%	-3
COc1cc(C(=O)N2CCC(c3nc(-c4cccnc4)no3)CC2)cc(OC)c1OC	-0.3%	-18%	-1.2	0.2	-3%	21
CCOc1cc(C(=O)Nc2cc(C)ccn2)cc(OCC)c1OCC	0.4%	-4%	-0.4	0.5	0%	22
O=[N+]([O-])c1cccc(/C=N/Nc2nc(NCc3ccccc3)nc(N3CCOCC3)n2)c1	0.7%	-62%[inhibitor]	4.9	1.0	-3%	-16
COc1cc(CNCCc2c[nH]c3ccccc23)cc(Cl)c1OCC(N)=O	1.2%	-22%[15.4 µM]	1.8	1.4	1%	-8
O=C(C=Cc1cccs1)c1cccs1	.	14%	.	-0.8	-3%	6
CC1CN(Cc2nc3c(c(=O)n(C)c(=O)n3C)n2CCc2ccccc2)CC(C)O1 (stereo not drawn)	-3.2%	19%	.	0.8	-2%	-8
Cc1c(O)ccc(C(=O)COc2ccc(F)cc2)c1O	-4.0%	8%	-0.4	1.6	-12%	26
CC(=O)Nc1nc2cccc([N+](=O)[O-])c2s1	-2.3%	20%	-5.9	-1.0	-3%	-9
CCCCNC(=O)c1onc(CSc2ccc(Cl)cc2)c1C(=O)O	0.5%	.	1.8	-0.4	-25%	-7
COc1ccc(-c2cc(CCCC(=O)NCCc3ccccc3)no2)cc1	.	-21%[15.4 µM]	2.9	1.1	-11%	19
Cn1c(SCC(=O)Nc2ccc3cn[nH]c3c2)nnc1-c1cnccn1	-23%	12%	-1.0	-0.5	9%	0
COc1ccccc1CN(Cc1ccco1)c1cnc(S(C)(=O)=O)nc1C(=O)Nc1ccccc1Cl	-19%	.	.	1.3	.	33
Cc1ccccc1NC(=O)CCSc1nnnn1-c1ccccc1	0.6%	-1%	1.7	1.8	-13%	-14
O=C(NCCN1CCN(C(=O)C(c2ccccc2)c2ccccc2)CC1)C(=O)Nc1ccccc1	-0.9%	-23%	1.1	-1.1	-21%	4
CCc1[nH]nc2c1C(C1C=CCCC1)C(C#N)=C(N)O2 (stereo not drawn)	0.6%	-20%	0.3	0.2	6%	-1
Cc1ccc(C(=O)OCC(=O)N(CC(C)C)c2c(N)n(Cc3ccccc3)c(=O)[nH]c2=O)cc1[N+](=O)[O-]	.	4%[15.4 µM]	.	0.3	-11%	19
COc1ccc(C(=O)NC(=S)N2CC(C)OC(C)C2)cc1OC (stereo not drawn)	.	9%	0.9	0.8	5%	1
Cc1[nH]n(-c2ccccc2)c(=O)c1/C=N/NC(=O)c1ccoc1C	1.5%	5%	5.2	0.2	0%	0
Cc1sc(-c2cc3ccccc3oc2=O)nc1-c1ccc(Cl)c(Cl)c1	-11%	.	.	-0.8	.	4
CCc1cc2c(=O)oc(-c3ccc(Br)cc3)nc2s1	-5.0%	-46%[inhibitor]	-0.8	-0.5	-3%	-22
COc1ccc(S(=O)(=O)N(C)C)cc1NC(=O)COC(=O)c1nn(C)c(=O)c2ccccc12	-0.4%	-10%	-1.3	2.5	-3%	7
CC(=O)c1ccc(N2CCN(S(=O)(=O)c3ccc4c(c3)C(C)(C)C(=O)N4)CC2)cc1	-27%	.	.	0.5	.	0
CCOC(=O)C1=C(C)Nc2ncnn2C1c1ccccc1F (stereo not drawn)	-5.0%	0%	2.8	-1.0	-7%	-13
C[C@@]12C(=O)Nc3cc(F)c(F)cc3C(=O)N1[C@H]1c3ccccc3OC[C@@H]1[C@@H]2c1ccccc1	-5.0%	.	.	-0.6	-18%	-9
CCOC(=O)c1ccc(NC(=O)C2CC(=O)Nc3nc4ccccc4n32)cc1 (stereo not drawn)	.	-9%[15.4 µM]	-3.1	0.3	4%	33
COC(OC)c1nc(SCC(=O)Nc2cccc(Cl)c2)ncc1C(=O)O	-3.8%	-9%	3.8	-1.0	?	4
COCCNC(=S)N(CCc1c(C)[nH]c2ccccc12)Cc1cccnc1	-5.6%	-11%[15.4 µM]	3.7	-1.7	-4%	8
Nc1nc(C2CCCN2S(=O)(=O)c2ccc(Cl)cc2)cs1 (stereo not drawn)	0.4%	-10%	-0.2	3.1	-4%	-9
S=c1[nH]nc(Cc2ccccc2)n1-c1ccc(Cl)cc1	.	8%[15.4 µM]	4.1	1.2	4%	-9
CCCc1nnc(NC(=O)CC(=O)OCC)s1	-1.4%	-10%	4.1	0.4	5%	6
CCOC(=O)C1(Cc2ccccc2Cl)CCN(C(=O)CN2CCOC2=O)CC1	.	?	1.5	0.0	-2%	-12
O=C(c1ccc2c3c(cccc13)CC2)C1CCCN(Cc2ccncc2)C1 (stereo not drawn)	-14%	1%	-0.1	0.1	-27%	33
CCc1ccc(C(=O)N2CCC(c3nc(-c4ccc(S(=O)(=O)N5CCCC5)cc4)no3)CC2)cc1	0.7%	.	.	0.0	.	4
Cc1nn2c(NCCN(C)C)c3c(nc2c1-c1ccccc1)CCCC3	.	-22%	0.9	0.9	-2%	-19
COc1ccc(C(=O)COc2ccccc2N2C(=O)C3C4C=CC(C4)C3C2=O)cc1 (stereo not drawn)	0.7%	-25%	-1.9	-0.9	1%	-10
CC(NC(=O)CCSc1nc(-c2ccc3c(c2)OCO3)cc(C(F)(F)F)n1)c1ccccc1 (stereo not drawn)	32µM*	4%	5.8	2.0	-9%	42
CCN(CC)c1cc(C)nc2nc(-c3ccc(C)cc3)nn12	-2.0%	.	.	0.2	.	2
CC(NC(=O)c1cc2cc([N+](=O)[O-])ccc2oc1=O)C1CCCO1 (stereo not drawn)	-0.1%	21%[15.4 µM]	-2.2	-0.3	-5%	-3
Cc1cc([N+](=O)[O-])ccc1NC(=S)NC(=O)Cc1ccccc1	-1.9%	-29%	0.5	0.1	-14%	0
COc1ccc(OC)c(NC(=O)CSc2nc(=O)n(CCN3CCOCC3)c3c2CCC3)c1	1.6%	6%	.	0.0	-6%	11
Cc1cc(C)n(S(=O)(=O)c2ccc(C(C)(C)C)cc2)n1	-1.8%	7%	0.9	3.7	1%	-9
COC(=O)Cc1c(O)ccn(CCc2ccccc2)c1=O	-2.6%	0%[15.4 µM]	-7.4	-0.3	7%	5
COc1cccc2cc(C(=O)NC(C)C3CCCO3)c(=O)oc12 (stereo not drawn)	-13%	-4%	6.4	-0.3	0%	-8
CCCc1cc(=O)[nH]c(SCc2ccc(Cl)cc2)n1	1.4%	2%	0.7	2.9	16%	15
CCOCCc1nn2c(=O)cc(CSCC(=O)Nc3ccc(OC)cc3)nc2s1	2.1%	-17%	.	-0.2	8%	-11
O=C1CCCN1CCCNC(=S)Nc1cccc2ccccc12	.	?	0.3	0.0	2%	-7
CCCCOc1ccc(CN(C)c2ncnc(N)n2)cc1	0.1%	-7%	3.5	1.5	6%	3
